# RE007 growth inh = less growth of the S. pombe RE007 Vpr strain; Potency, µM (top dose mostly 92.2 µM), inactives show at the top dose activity change, negative = less growth; 360,000 compounds, 0.21% hits; S. pombe RE007 Vpr strain, BacTiter-Glo ATP luminescence, 24 h; control for the full effect not named in the record; AID 651644; active = well fitted falling curve with a large enough effect; inconclusive = small, poorly fitted or top-dose-only effect; inactive = no such curve, though single readings can be large or run the other way;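 further: on the % scale 0 is the no-effect control and ±100 the full control effect; nearly all actives have a fitted effect of over 50% in size; the assay follows cell death caused by Vpr and the record does not say whether a fall means rescue or toxicity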
#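 Fission yeast RE007 carrying one integrated HIV-1 vpr copy, seeded at OD 0.01 in PMG+AL medium with 23 nL pinned compound. Grown 24 h at 30 degrees; viability read by BacTiter-Glo luminescence after 5 min.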
# LASV entry inh = Lassa virus entry inhibition; Lassa virus pseudotype entry inhibition, cell reporter; control for the full effect not named in the record; Potency, µM (titrated, usually from 37.9 µM), without a hit: top-dose activity change, negative = inhibition, hits mostly inhibitors; 300,000 compounds, 1.2% hits; active means well fitted inhibition curve with a large enough effect; inconclusive means small, poorly fitted or top-dose-only effect, or effect the other way; inactive means flat fitted curve, though single readings scatter; tested in HEK293 cells; further: on the % scale 0 is the no-effect control and ±100 the full control effect; nearly all actives have a fitted effect of over 50% in size; luciferase read-out
# SARS PLP yeast = SARS-CoV PLP inhibition in yeast | Potency, µM (top dose mostly 32.9 µM), for the others: top-dose activity, positive = growth rescue | S. cerevisiae expressing SARS-CoV PLpro, growth rescue; control for the full effect not named in the record | 330,000 compounds, 0.19% hits | AID 485353; further: 0% is about no effect; nearly all actives have a fitted effect of over 55% in size; growth read by luminescence after 48 h
# Cruzain inh Det = inhibitors of Trypanosoma cruzi cruzain with detergent | purified cruzain, Z-FR-AMC fluorescence, 0.01% Triton | Potency, µM, for inactives: max response, negative = inhibition, usual class: inhibitors | 200,000 compounds, 0.43% hits | AID 1478; active means well fitted curve in the direction sought with a large enough effect; inconclusive means small, poorly fitted or top-dose-only effect, or another doubt; inactive means no such curve, though single readings can be large; an effect the other way counts as inactive or inconclusive;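 further: plate controls were neutral wells for no effect and buffer without enzyme for full effect; nearly all actives have a fitted effect of over 40% in size; top concentration of the series not given in the record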
# Target sequence (P25779 123-467 limits assumed): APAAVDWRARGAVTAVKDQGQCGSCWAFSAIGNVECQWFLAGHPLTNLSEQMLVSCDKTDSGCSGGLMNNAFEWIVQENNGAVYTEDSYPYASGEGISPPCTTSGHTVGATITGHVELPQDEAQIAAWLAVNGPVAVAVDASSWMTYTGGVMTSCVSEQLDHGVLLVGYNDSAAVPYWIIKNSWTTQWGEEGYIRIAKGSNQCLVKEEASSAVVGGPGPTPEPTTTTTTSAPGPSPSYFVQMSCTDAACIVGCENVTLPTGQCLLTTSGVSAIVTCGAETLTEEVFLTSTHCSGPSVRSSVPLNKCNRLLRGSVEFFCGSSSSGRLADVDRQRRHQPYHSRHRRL
#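 Steps: dispense cruzain (1.5 nM final) in acetate buffer pH 5.5 with DTT and 0.01% Triton X-100; pin-transfer compounds; incubate 15 min RT; add Z-FR-AMC (2 uM final); read fluorescence every 30 s, using the 60 s intensity change.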
# Cruzain noTriton = blocks cruzain activity in detergent-free assay. P25779. purified cruzain, Z-FR-AMC fluorescence, no detergent. Potency, µM, for the others: max response, negative = inhibition, actives largely listed as inhibitors. 200,000 compounds, 2.3% hits. AID 1476; active means well fitted curve in the direction sought with a large enough effect; inconclusive means small, poorly fitted or top-dose-only effect, or another doubt; inactive means no such curve, though single readings can be large; an effect the other way counts as inactive or inconclusive;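 further: plate controls were enzyme without inhibitor for no effect and buffer without enzyme for full effect; nearly all actives have a fitted effect of over 40% in size; top concentration of the series not given in the record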
#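 Detergent-free condition (0.00005% Triton X-100) in acetate buffer pH 5.5 with DTT. 1.5 nM enzyme and compound were pre-mixed 15 min, then 2 uM Z-FR-AMC substrate added; reaction progress from fluorescence change between first and third reads (60 s).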
# Marburg entry inh = inhibitors of Marburg virus binding or cell entry. Potency, µM (titrated, usually from 37.8 µM), inactives show top-dose activity change, negative = inhibition, usual class: inhibitors. 300,000 compounds, 1.8% hits. Marburg virus pseudotyped entry inhibition, cell reporter; control for the full effect not named in the record; about a third of the inactives were read at about 46 µM. AID 540276; active = well fitted inhibition curve with a large enough effect; inconclusive = small, poorly fitted or top-dose-only effect, or effect the other way; inactive = flat fitted curve, though single readings scatter; tested in HEK293 cells; about a fifth of its hits are not listed in these tables; further: on the % scale 0 is the no-effect control and ±100 the full control effect; luciferase read-out
# NS1 inh = influenza NS1 inhibition; S. cerevisiae slowed by influenza A NS1, growth recovery by OD600; Potency, µM (doses to about 46.1 µM), for the others: at the highest dose activity, positive = more growth; 270,000 compounds, 0.4% hits; further: actives are rising curves; nearly all actives have a fitted effect of over 50% in size
#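 Read-out: OD600 growth recovery of NS1-expressing budding yeast. Cells grown overnight at 30C in -URA glucose medium, washed, resuspended and diluted 1:100 in 2% galactose assay medium, pH 6.0. Same strain lacking NS1 served as positive control.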
# 2A StopGo = lowers the luciferase signal of an FMDV 2A StopGo reporter; human cells with a luciferase reporter of 2A StopGo recoding; control for the full effect not named in the record; Potency, µM (top dose mostly 57.9 µM), for the others: top-dose signal change, negative = less light; 410,000 compounds, 1.2% hits; AID 1159524; active = well fitted falling curve with a large enough effect; inconclusive = small, poorly fitted or top-dose-only effect; inactive = no such curve, though single readings can be large or run the other way; tested in HEK293T cells; further: on the % scale 0 is the no-effect control and ±100 the full control effect; nearly all actives have a fitted effect of over 45% in size; luciferase light after 4 h
# The depositor's hits bear a star; ? = inconclusive; / = no result given; & = joins results of further samples; [ ] = another dose, or the depositor's remark. Unless noted, the call rests on the fitted dose curve; in most records, active means well fitted rising curve with a large enough effect; inconclusive means small, poorly fitted or top-dose-only effect; inactive means no such curve, though single readings can be large or run the other way. Potency means the concentration at half of the fitted maximal effect.
SMILES,RE007 growth inh,LASV entry inh,SARS PLP yeast,Cruzain inh Det,Cruzain noTriton,Marburg entry inh,NS1 inh,2A StopGo
O=C(NCCc1ccccc1)C1CCC(CNc2nc(=S)[nH]c3ccccc23)CC1 (centres undefined),3%,-22%,-4%,/,/,-18%[46.1 µM],-4%,4%
CCOc1ccccc1-c1nnc(CS(=O)(=O)c2ccccc2)o1,-1%,-27%,3%,/,/,0%[46.1 µM],3%,5%
COc1ccc(-c2csc(C)n2)cc1Br,-12%,5%[46.1 µM],-2%,/,/,?,/,1%
COc1cccc(NC(=O)C2CCCN(S(=O)(=O)c3cccc4cccnc34)C2)c1 (centres undefined),-5%,-23%,13%,-1.7%,8%,0%&0%,-34%,-24%
CC1CCC(NC(=O)c2ccc(NC3=NC4CS(=O)(=O)CC4S3)cc2)CC1 (centres undefined),0%,/,1%,/,/,/,-6%,12%
CCCCNC(=O)CCCn1c(=O)[nH]c2ccc(Br)cc2c1=O,10%,?,-1%,1.7%,-10%,-22%,-3%,-5%
Cc1ccc(NC(=O)CCC(=O)NNS(=O)(=O)c2ccccc2)c(C)c1,0%,0%,2%,5.0%,-5%,44%,10%,-17%
CC(C)(C)OC(=O)N1CCC(Cc2cc(-c3ccc(Cl)cc3)no2)(C(=O)O)CC1,-10%,/,3%,/,/,/,-93%,-9%
CC1=NN(C(=O)c2ccccc2-n2cccc2)C(O)(C(F)(F)F)C1 (centres undefined),/,10%,-14%,-1.5%,12%,-2%,3%,-10%
CN(c1ccccc1)c1nccc(=O)[nH]1,1%,-16%,/,/,/,?,/,-7%
Nc1ccc2c(c1)nc(Cc1ccccc1)n2CCO,17%,/,-1%,/,/,/,0%,13%
CCCC(=O)NCCc1ccc(S(N)(=O)=O)cc1,-8%,1%,11%,9.2%,4%,-12%,0%,24%
CCOC(=O)N1CCC(NC(=O)C2CCCN(S(=O)(=O)c3ccc4c(c3)oc(=O)n4C)C2)CC1 (centres undefined),-5%,-16%,1%,1.4%,-6%,9%,-1%,/
COc1ccc(C2c3c4c(n(C)c3CCN2C)CCN(C)C4c2ccc(OC)cc2)cc1 (centres undefined),18%,?,5%,11%,-6%,?,2%,7%
CC(C)Oc1ccc(S(=O)(=O)N2CCOCC2)cc1NC(=O)CCCSc1ccccc1,1%,-21%,3%,/,/,?,/,-7%
O=C(NCc1ccco1)c1ccc(N2CCOCC2)c([N+](=O)[O-])c1,-8%,?,0%,/,/,-18%[46.1 µM],4%,0%
CCOCN(C(=O)Cn1c(COC)nc2ccccc21)c1c(C)cccc1CC,7%,?,-6%,-3.4%&-2.2%,?,?,1%,-16%&-11%
Cc1ccc2c(NC(=O)C3CC3)c(C)ccc2n1,/,/,-7%,7.1%,-4%,0%,-12%,/
C#CCOCCOCCOCCNc1nc(N2CCN(C(=O)[C@H](CCC(=O)O)n3cc(C(N)CO)nn3)CC2)nc(N2CCN(C(=O)[C@H](CCC(=O)O)n3cc(C(N)[C@H](C)CC)nn3)CC2)n1 (some centres undefined),11%,/,0%,/,/,/,2%,-4%
Cc1cccc(N2CCn3c2nc2c3c(=O)n(C/C=C/c3ccccc3)c(=O)n2C)c1,/,10%[46.1 µM],/,2.8%,4%,/,/,-10%
O=C(CN(C(=O)c1cc2c(s1)CCC2)C1CCCC1)NCc1cccs1,11%,4%,-2%,1.0%,-11%,?,-45%,/
CCc1ccccc1N1C(=O)/C(=C/c2ccc(N3CCN(C)CC3)o2)C(=O)NC1=S,-11%,1%,-2%,-10%,-12%,14%,28%,-18%
COc1ccc(CNCc2ccccc2C(F)(F)F)cc1,-16%,/,9%,/,/,/,19%,8%
CC1CCCCN1C(=O)C1CCN(S(=O)(=O)c2ccc(-n3cnnn3)cc2)CC1 (centres undefined),-5%,-16%,1%,/,/,-19%[46.1 µM],-7%,-23%
C/C(=N\NC(=O)c1cc(-c2cccnc2)nc2ccccc12)c1ccccc1O,-5%,?,10µM*,-0.5%,?,10µM*,10%,30%[activator]
CCOC(=O)N1CCN(Cc2cn[nH]c2-c2cccc3ccccc23)CC1,-3%,/,1%,/,/,/,4%,-12%
CN(C)CCCNc1c(C(=O)O)cnc2c1cnn2C,/,/,?,6.0%,0%,/,14%,/
CC1CCC(C(C)C)C(OP(=O)(c2ccc(N(C)C)cc2)C(O)c2cccnc2)C1 (centres undefined),/,?,-2%,-3.6%,?,-39%,-11%,/
CC(C)Cn1c(N)c(C(=O)NCc2cccs2)c2nc3ccccc3nc21,22%,-8%,-29%,-4.9%,?,?,?,-6%
COC(=O)c1ccc(COc2cccc3c2CCN(Cc2ccccc2)C3=O)o1,14%,-26%,-56%,-7.6%,-3%,?,-15%,?
COc1ccc(OC)c(NC(=O)CSc2c3c(nc4ccccc24)CCCC3)c1,/,?,/,-8.4%,-4%,10%[46.1 µM],/,?
Cc1cc(NS(=O)(=O)c2ccc(OCCNS(C)(=O)=O)cc2)no1,1%,17%,5%,0.4%,-5%,10%,7%,/
CC1=C/C(=N\OC(=O)/C=C/c2ccccc2)C(C)=CC1=O,-9%,26%,-6%,-1.8%,3%,12%,?,2%
CCCN(CC(=O)Nc1ccccc1OC)C(=O)c1cccc(S(=O)(=O)NCc2ccccc2)c1,8%,-22%,2%,/,/,?,/,16%
CN(C)N=Nc1ccc2nc[nH]c2c1,-6%,/,-1%,/,/,/,-4%,5%
CC1=C(C(=O)N2CCCC(N3CCN(c4cccc(C(F)(F)F)c4)CC3)C2)OCCO1 (centres undefined),-11%,-10%,-2%,/,/,-30%,-5%,?
CCOc1ccc(-n2c(=O)c3c(C)c(C(=O)N(C)C)sc3n(Cc3cc(C)ccc3C)c2=O)cc1,/,6%[46.1 µM],/,3.6%,4%,/,/,-4%
N#CC1(C#N)C(c2ccccc2)OC23CCCCCC2C1(C#N)C(=N)O3 (centres undefined),-3%,-1%,12%,-12%,2%,30%,6%,-7%
O=C(COC(=O)c1cc(S(=O)(=O)N2CCOCC2)ccc1Cl)Nc1ccccc1Cl,-4%,5%,-1%,/,/,?,/,-9%
CC(=O)Nc1cccc(Oc2ccc3c(c2)C(=O)NC3=O)c1,-16%,13%,-1%,/,/,-19%,10%,35%[activator]
CC(C)(C)c1cc(NC(=O)COC(=O)c2ccc3c(=O)n4c(nc3c2)CCC4)n(-c2ccccc2)n1,18%,-2%,-11%,-4.7%,?,-9%&11%,-15%,-9%
CC(=O)N1CCN(C(=S)Nc2ccc(Oc3ccccc3)cc2)CC1,23%,-10%[46.1 µM],-2%,/,/,1%[46.1 µM],/,18%
O=C(CN(c1ccc(F)cc1)S(=O)(=O)c1ccccc1)NCCSC1CCCCC1,-4%,?,-7%,-7.3%,14%,-37%,-38%,?
Cc1nn(CCOc2ccccc2)c(=O)n1-c1ccccc1,19%,-7%,-3%,3.4%,-7%,?,-11%,59%[activator]
O=C(NC1CCCCCC1)c1cc(S(=O)(=O)N2CCOCC2)ccc1N1CCCCC1,13%,-18%,-2%,-6.4%,?,4%,-3%,-21%
COc1ccccc1-c1c(C)nn2c(N3CCN(c4ccc(F)cc4)CC3)cc(C)nc12,/,5%[46.1 µM],/,1.2%,-5%,/,/,?
Fc1ccc(Cn2nnnc2CN2CCN(C3CCCC3)CC2)cc1,16%,-28%,14%,0.4%,-2%,-2%,0%,0%
Cc1cc(C)nc(NC(=O)/C=C/c2ccccc2Cl)c1,-26%,-19%,-19%,-11%,-6%,-15%,-16%,9%
CCCc1cc(C(=O)Nc2sc(C)c(CC)c2C#N)no1,-7%,/,24%,-7.1%,2%,/,-8%,23%
CCOC(=O)C(NC(=O)c1ccccc1)=C1CCCCC1,7%,9%,10%,8.7%,-9%,-4%,-5%,-18%
COC(=O)Cc1ccc(OC(=O)c2cccc(S(=O)(=O)N3CCN(C)CC3)c2)cc1,0%,4%,3%,/,/,3%[46.1 µM],/,0%
Cc1ccc2[nH]c(=O)c(CN(C(=O)c3cccc([N+](=O)[O-])c3)C(C)C)cc2c1,-12%,/,1%,/,/,/,-16%,?
CNC(=O)c1c(NC(=O)CS(=O)(=O)c2ccccc2)sc(C)c1C,12%,1%,7%,/,/,16%,/,8%
N#Cc1c(Br)n(C2OC(CO)C(O)C2O)c2ncnc(N)c12 (centres undefined),-9%,?,/,/,/,?,/,8%
COC(=O)/C=C1\S/C(=N/N=C/c2ccc(Cl)cc2)NC1=O,-12%,-23%,-6%,/,/,0%[46.1 µM],-45%,-11%
Cc1ccc(S(=O)(=O)Nn2c(C)nnc2-n2nc(C)cc2C)cc1,-8%,-2%,8%,2.3%,0%,8%,4%,-3%
Cc1ccc(S(=O)(=O)N2CCC(C(=O)OCC(=O)N(C)c3ccccc3)CC2)cc1C,1%,-3%,-5%,/,/,23%,/,-13%

# Quoted from the listing for reference:
SMILES,RE007 growth inh,LASV entry inh,SARS PLP yeast,Cruzain inh Det,Cruzain noTriton,Marburg entry inh,NS1 inh,2A StopGo
COC(=O)/C=C1\S/C(=N/N=C/c2ccc(Cl)cc2)NC1=O,-12%,-23%,-6%,/,/,0%[46.1 µM],-45%,-11%
Cc1ccc(S(=O)(=O)Nn2c(C)nnc2-n2nc(C)cc2C)cc1,-8%,-2%,8%,2.3%,0%,8%,4%,-3%
Cc1ccc(S(=O)(=O)N2CCC(C(=O)OCC(=O)N(C)c3ccccc3)CC2)cc1C,1%,-3%,-5%,/,/,23%,/,-13%

# Screens deposited in PubChem BioAssay by National Center for Advancing Translational Sciences (NCATS).
